AID504770 = E. coli YBA685 growth inhibition, screen for V. cholerae RctB inhibitors | E. coli YBA685 rctB-dependent plasmid, OD600 growth, 3 h; stronger effect = lower value | z-score (concentration not given with the values) | actives 0.27% (n = 130,000);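 active means z-score under -2 on both plates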;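 further: wells of about 30 µL received 100 nL stock; score is relative to mean and SD of the test wells; the first replicate is given; strong numbers were not always called active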
CapD inh = blocks the Bacillus anthracis CapD enzyme; purified CapD enzyme, fluorescence intensity read-out; stronger effect = lower value; some hits fall short of the stated cut; z-score (test concentration not listed); actives 0.23% (n = 140,000);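 active means z-score under -4 in either of two replicates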;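 further: stock transfer was 100 nL into about 40 µL; score is relative to mean and spread of the plate; one replicate is shown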
* hit, by the source's call. These rows are one share of the data. The share of hits here may be higher or lower than overall.

Results for O=C(Nc1ccccc1)c1ccc(Cn2cc(C(F)(F)F)ccc2=O)cc1 ?
CapD inh: 0.23

Results for COc1cc(C2N(Cc3ccccc3)CCN2Cc2ccccc2)ccc1OC(C)=O ?
CapD inh: -0.24

How did O=C1CC(C(=O)O)c2ccccc21 (stereo not given) do in these assays?
CapD inh: 0.91

What do the screens show for `CC12CN3CC(C)(CN(C1)C3c1cccc(Br)c1)C2O` (stereo not given)?
CapD inh: -0.3

How did Cc1nc(-c2ccnc(-c3cc(Cl)cc(Cl)c3)n2)cs1 do in these assays?
AID504770: -0.05; CapD inh: -0.77

What do the screens show for `CCCOC(=O)c1ccc(-n2nc(C(F)(F)F)c3c(C)cc(=O)oc32)cc1`?
AID504770: 2.4; CapD inh: -0.35

How did CN1CCN(Cc2c(O)ccc3cc(-c4nc5ccccc5[nH]4)c(=O)oc23)CC1 do in these assays?
AID504770: 0.2; CapD inh: 1.5

Results for Clc1ccc(C2Oc3ccccc3CN2Cc2ccco2)cc1 (stereo not given) ?
AID504770: 1.1

What do the screens show for `O=C(NCC1CCCO1)c1ccc2c(=O)n(CCc3c[nH]c4ccccc34)c(=S)[nH]c2c1` (stereo not given)?
CapD inh: -1.4

What do the screens show for `CC(C)(C)n1cnnc1Sc1ccc(C(F)(F)F)cc1[N+](=O)[O-]`?
CapD inh: -0.32

Results for Fc1ccc(-c2cnn3c(C(F)(F)F)cc(-c4cccc(Cl)c4)nc23)cc1 ?
CapD inh: 0.34

How did COc1cc(C2Nc3ccc4ncccc4c3C3=C2C(=O)CC(C)(C)C3)cc(OC)c1O (stereo not given) do in these assays?
CapD inh: -0.32

How did CN(c1ccccc1)S(=O)(=O)c1ccc(C(=O)c2sc(N3CCOCC3)nc2-c2cccs2)cc1 do in these assays?
AID504770: 0.45

Results for COC(=O)c1noc(C(=O)OC)c1O ?
AID504770: -0.15

What do the screens show for `Cc1ccccc1OC(=O)OCC(C)C`?
AID504770: 0.45; CapD inh: 0.48

How did NC(=O)c1ccccc1NC(=O)c1ccoc1 do in these assays?
AID504770: -0.25; CapD inh: 4.8

Results for COC(=O)C(C)Oc1ccc2c(=O)c(-c3ccc(Cl)cc3)coc2c1 (stereo not given) ?
AID504770: 0; CapD inh: 0.41

What do the screens show for `Cc1cccc(NC2=NC(=S)N(c3ccccc3C)C23CCCC3)c1`?
CapD inh: -0.07

Results for COc1ccc(S(=O)(=O)N2CCC(C(=O)c3ccc(F)cc3)CC2)cc1 ?
CapD inh: 0.82

What do the screens show for `CCc1ccccc1NS(=O)(=O)c1ccc(-n2cccn2)cc1`?
AID504770: 0.1; CapD inh: -0.35

How did CCN1C(=O)C2C(c3ccccc3O)NC(Cc3c[nH]c4ccccc34)(C(=O)O)C2C1=O (stereo not given) do in these assays?
AID504770: -0.1

What do the screens show for `CC1(CC(=O)O)SC(=O)NC1=O` (stereo not given)?
AID504770: 1.8; CapD inh: -0.02

How did Cc1ccc(S(=O)(=O)N=C2C=CC(=NS(=O)(=O)c3ccc(C)cc3)C=C2)cc1 do in these assays?
AID504770: 0; CapD inh: 0.85

What do the screens show for `CC1CCN(c2nc3c(c(=O)[nH]2)CCNC3)CC1`?
AID504770: -1.1; CapD inh: 0.65

Results for CCC(C)n1c(SCSc2nc3c(c(=O)n(C)c(=O)n3C)n2C(C)CC)nc2c1c(=O)n(C)c(=O)n2C (stereo not given) ?
CapD inh: -0.8

Results for Cc1ccc(S(=O)(=O)N2CCC(C(=O)O)CC2)s1 ?
AID504770: -0.05; CapD inh: -0.26

How did COc1cc(COC(=O)N2CCN(Cc3ccccc3OCc3ccccc3)CC2)cc(OC)c1OC do in these assays?
CapD inh: 0.46

How did Cc1noc(C)c1CCNC(=O)c1cnc(N2CCOCC2)nc1 do in these assays?
AID504770: 0.1; CapD inh: 1.3

Results for Cc1cc(-c2csc(NC(=O)C3CC4C=CC3C4)n2)c(C)n1Cc1ccco1 (stereo not given) ?
AID504770: 0.45

How did O=C1CCCc2c1sc1nc3n(c(=O)c21)CCCCC3 do in these assays?
CapD inh: 1.7

Results for CC12CCC(C(=O)N3CCN(Cc4ccccc4)CC3)(OC1=O)C2(C)C (stereo not given) ?
AID504770: -0.7; CapD inh: -0.44

Results for COC(=O)c1ccc(N2N=C(C)/C(=C/c3cccn3-c3ccc(S(N)(=O)=O)cc3)C2=O)cc1 ?
CapD inh: -1.3

What do the screens show for `Cc1cc(C)c(C#N)c(SCC(O)COc2ccc(Cl)cc2)n1` (stereo not given)?
AID504770: 0; CapD inh: 0.44

Results for Cc1cc(-c2nc(-c3ccnn3C(=O)Nc3cccc(Cl)c3)cs2)no1 ?
AID504770: -0.4; CapD inh: 16

What do the screens show for `S=C=NCc1ccco1`?
AID504770: 0.1

Results for Fc1ccccc1/C=C1\CCCC2=C1Nc1ncnn1C2c1ccccc1F (stereo not given) ?
AID504770: 0.4; CapD inh: -0.49

Results for O=C(NNC(=O)c1cc(-c2ccccc2)nc2ccccc12)c1ccc(-c2ccccn2)s1 ?
CapD inh: 2.6

Results for O=C(/C=C/c1ccco1)Nc1ccc(-c2cc3ccccc3oc2=O)cc1 ?
AID504770: 1.6

Results for CCN(CC)C(=O)CSc1nc2ccccc2c(=O)[nH]1 ?
AID504770: -1.2

How did O=C(Cc1ccc(Cl)cc1)OC1CCOC1=O (stereo not given) do in these assays?
AID504770: 0.15

How did Cn1c(-c2ccc3ncccc3c2)n[nH]c1=S do in these assays?
CapD inh: -0.1

Results for CCOC(=O)c1c(CSc2nc(C)cc(C(F)(F)F)c2C#N)n(C)c2cc(Br)c(OC(C)=O)cc12 ?
CapD inh: 0.14

How did COc1ccccc1C1(C#N)C(=O)Nc2ccccc21 (stereo not given) do in these assays?
AID504770: 0.05; CapD inh: -0.36

Results for Nc1nc2c(c(C(F)(F)F)n1)CCCC2 ?
CapD inh: 46

How did CCc1sc(C(=O)Nc2nc(-c3ccccn3)cs2)cc1C do in these assays?
AID504770: 1.1

How did CNC(=O)c1cc(Br)c(C)c(C)c1C do in these assays?
AID504770: 0.05; CapD inh: 0.19

What do the screens show for `O=C(O)c1ccc(NNC(=S)NC2CC2)cc1`?
AID504770: -0.45

What do the screens show for `Cc1ccc(S(=O)(=O)n2cc(/C=c3\sc4nc5ccccc5n4c3=O)c3ccccc32)cc1`?
CapD inh: 0.1

What do the screens show for `Clc1ccc2oc(-c3ccccc3)cc(=NCCCN3CCOCC3)c2c1`?
AID504770: -0.15; CapD inh: 6.1

Results for O=C(O)C1CCN(S(=O)(=O)c2ccccc2)CC1 ?
AID504770: -0.7; CapD inh: -0.005

How did Cc1c(CNCCC2=CCCCC2)c(C(=O)O)c(C)n1Cc1cccc(Cl)c1 do in these assays?
AID504770: 0.9; CapD inh: -0.32

What do the screens show for `COC(=O)C1=C(C(=O)OC)SC(=C2C(=S)C(C)(C)Nc3c(OC)cccc32)S1`?
CapD inh: -0.72

What do the screens show for `COc1ccc(NC(C)=O)cc1NC(=O)CN1CCCN(S(=O)(=O)c2ccc(Br)cc2)CC1`?
AID504770: -0.1; CapD inh: 9.1

Results for CN1C(=O)/C(=C\c2ccccc2)Sc2ccc(C(=O)NCCc3ccccc3)cc21 ?
AID504770: 0.65; CapD inh: 11

What do the screens show for `COc1ccc(-c2cn3c4ccccc4nc3n2CCN2CCN(CCO)CC2)cc1`?
AID504770: 0.35; CapD inh: 0.17

How did NC(=O)Cn1cnc2c(cnn2-c2ccccc2)c1=O do in these assays?
AID504770: -0.2; CapD inh: -0.25

Results for COC(=O)C(C)Oc1ccc2oc(=O)cc(-c3cc4ccccc4o3)c2c1 (stereo not given) ?
AID504770: -1.4

How did CCO/C=C1/C(=O)N(Cc2ccc(OC)cc2)C(=O)c2ccccc21 do in these assays?
AID504770: 1.1

How did O=C(CS(=O)(=O)c1ccccc1)Nc1ccc(S(=O)(=O)N2CCCCC2)cc1 do in these assays?
AID504770: 0.6

What do the screens show for `CCN(Cc1nc(-c2ccc(C)cc2)no1)C(=O)Nc1ccccc1OC`?
AID504770: 0.65; CapD inh: -0.42

Results for OCCCc1nc2ccccc2n1CCc1ccccc1 ?
AID504770: -0.15; CapD inh: 0.43

How did Cc1cc2nc3c(=O)n(C4CCCCC4)c(=O)[nH]c3nc2cc1N=CN(C)C do in these assays?
AID504770: 1.1; CapD inh: -0.48

How did CCOC(=O)c1c(C)oc2c1c(C=NCC1CCCO1)c(O)c1ccccc12 (stereo not given) do in these assays?
AID504770: -0.4; CapD inh: -0.65

Results for Cc1ccc(N2C(=O)NC(=O)/C(=C/c3ccc(Br)o3)C2=O)cc1Cl ?
AID504770: -0.35; CapD inh: -1.7

Results for N#C/C(=C\c1cn(CC(=O)NCC2CCCO2)c2ccccc12)C(=O)NCC1CCCO1 (stereo not given) ?
AID504770: 2.3

What do the screens show for `Nc1c(Cl)cc(-c2noc(-c3cccs3)n2)cc1Cl`?
AID504770: -0.15; CapD inh: 0.065

How did Cc1[nH]n(-c2ccccc2)c(=O)c1Sc1ccccc1 do in these assays?
AID504770: 1.4; CapD inh: -0.02

What do the screens show for `O=C(CC1Sc2ccccc2NC1=O)NO` (stereo not given)?
CapD inh: 0.39

What do the screens show for `O=C(CCC(=O)c1ccccc1)NCc1ccccc1`?
AID504770: 3.7; CapD inh: -1.1

How did CCCCNS(=O)(=O)c1c(C)c(C)cc(C)c1C do in these assays?
AID504770: -0.45; CapD inh: -0.32

How did C(#Cc1ccccc1)CNCc1ccc2c(c1)OCO2 do in these assays?
AID504770: -0.65

How did CC(C)(C)c1ccc(Oc2ncccc2[N+](=O)[O-])cc1 do in these assays?
CapD inh: -0.29

Results for Cc1ccc(-n2c(=O)cc(NCc3cccnc3)[nH]c2=O)cc1 ?
AID504770: 0.8; CapD inh: -0.81

Results for CCCC12CC3CC(CC(N)(C3)C1)C2 ?
AID504770: 0.75; CapD inh: inactive

Results for COC(=O)C1=C(N)OC(CC#N)=C(C(=O)OC)C1c1ccc(OC)c(OC)c1 (stereo not given) ?
AID504770: -0.9; CapD inh: -1.8

How did Cc1cc(C)cc(NC(=O)N2CCN(C/C=C/c3ccccc3)CC2)c1 do in these assays?
AID504770: -1; CapD inh: -0.66

Results for O=C(OCC(=O)c1ccc(S(=O)(=O)N2CCCC2)cc1)C1=COCCO1 ?
AID504770: -0.65

How did CCOc1ccc2nc(SCC(=O)NC(=O)CN3CCCC3=O)sc2c1 do in these assays?
AID504770: 0.4

How did O=C(CCCN1C(=O)/C(=C/c2ccccc2)SC1=S)Nc1ccccc1O do in these assays?
AID504770: -0.35; CapD inh: -0.72

Results for CC1=NN(c2ccc(Cl)c(Cl)c2)C(=O)/C1=C/c1ccc(-c2ccc3c(c2)C(=O)OC3)o1 ?
CapD inh: 15

How did CC(=O)c1ccc(N2C(=O)C(=O)/C(=C(/O)c3ccccc3)C2c2ccc(Br)cc2)cc1 (stereo not given) do in these assays?
CapD inh: -0.17

How did COc1ccc(Cl)cc1NC(=O)c1ccc2c(=O)n(-c3ccc(OC)c(OC)c3)c(=S)[nH]c2c1 do in these assays?
CapD inh: 0.93

How did COc1ccc2cc(CCNC(=O)CCCc3ccccc3)c(=O)[nH]c2c1 do in these assays?
AID504770: -0.35; CapD inh: 22

What do the screens show for `Nc1ccc(N2CCOCC2)c(Br)c1`?
AID504770: 0.85; CapD inh: -0.67

Results for O=C(OCc1ccc2c(c1)OCO2)c1ccc(S(=O)(=O)N2CCCC2)cc1 ?
AID504770: -0.45; CapD inh: -0.15

What do the screens show for `COc1ccc(C)cc1S(=O)(=O)N1CCCC1C(=O)OCc1ccccc1` (stereo not given)?
CapD inh: -0.24

Results for CCOc1ccc(C2CC(=O)NC(SCC(=O)NC3CCCCC3)=C2C#N)cc1 (stereo not given) ?
AID504770: 0.4; CapD inh: -0.12

Results for N#Cc1c(-c2ccccc2)cc(-c2ccco2)c(C#N)c1N ?
AID504770: 0.2

What do the screens show for `CNC(=S)NCCN1C(=O)S/C(=C\c2cccnc2)C1=O`?
AID504770: -3*

How did CCc1ccc2nc(N(CCN(C)C)C(=O)c3cccs3)sc2c1 do in these assays?
AID504770: -1.1; CapD inh: -0.14

How did Cc1[nH]c(=O)n(CN2CCN(c3ncc(C(F)(F)F)cc3Cl)CC2)c1C do in these assays?
AID504770: 1.6

How did CCn1c(CN2C(=O)c3ccccc3C2=O)nc2cc(S(=O)(=O)N(C)C)ccc21 do in these assays?
AID504770: 1.5

Bioassay records from PubChem BioAssay.
